Assay outcomes deposited in PubChem by several laboratories.
Ecoli growth: E. coli growth inhibition, primary screen, OD600; 330,000 tested, 0.21% active; Escherichia coli growth, 23 h; active compounds read low; OD600 absorbance (concentration not given with the values);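 active means OD600 absorbance below the run mean of sample wells minus 3.6 SD, in any replicate, cut at about 0.56 in these data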;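 further: stock transfer was 300 nL into about 60 µL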
HNF4A DNA FP: change in binding of human HNF4A to DNA, primary screen, biochemical, fluorescence polarization, FITC-DNA | Hepatocyte nuclear factor 4-alpha (Homo sapiens), P41235 | 1 h | activity change, % at 10 µM | 360,000 tested, 0.3% active; in the data active means activity change above about 30%, passing the limit was not always enough;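 further: controls were the assay level and a saturating level of protein; the project sought stronger binding though the title names inhibitors; some compounds called inactive have numbers as strong as hits; positive values seem to mean higher polarization but the record does not say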
Target sequence (P41235 whole entry, looked up): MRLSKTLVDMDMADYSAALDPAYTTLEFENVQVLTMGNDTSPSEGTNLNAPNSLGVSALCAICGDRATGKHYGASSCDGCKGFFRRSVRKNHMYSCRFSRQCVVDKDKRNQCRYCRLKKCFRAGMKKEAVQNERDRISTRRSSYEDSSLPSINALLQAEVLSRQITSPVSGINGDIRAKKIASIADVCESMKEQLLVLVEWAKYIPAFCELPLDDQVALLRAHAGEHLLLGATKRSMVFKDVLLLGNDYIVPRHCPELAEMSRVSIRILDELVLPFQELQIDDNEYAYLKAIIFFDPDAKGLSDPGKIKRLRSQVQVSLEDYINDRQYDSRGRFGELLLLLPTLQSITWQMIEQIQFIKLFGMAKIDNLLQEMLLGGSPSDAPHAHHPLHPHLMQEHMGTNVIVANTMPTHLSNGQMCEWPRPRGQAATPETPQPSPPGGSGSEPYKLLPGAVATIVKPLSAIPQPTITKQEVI
Vif TR-FRET: inhibitors of Vif binding to APOBEC3G peptide, primary screen, biochemical, TR-FRET, GST-Vif 1-94, biotin-A3G peptide, dose response retest (AID 1117319) | TR-FRET GST-Vif / biotin-A3G peptide binding; higher % means a stronger effect; test concentration not given here; strong numbers were not always called active | inhibition, %; hits with a dose series show IC50 in µM | 260,000 tested, 0.57% active | Virion infectivity factor (Human immunodeficiency virus type 1 group M subtype B (isolate …;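 active means above the screen mean plus three standard deviations and confirmed in dose response; inconclusive means results disagree or hit not tested in dose response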;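 further: Vif residues 1-94 fused to GST binding biotinylated APOBEC3G peptide 110-148; 0% = full assay without inhibitor and 100% = GST in place of GST-Vif; retest series ran down from 100 µM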
FGF22 binding: binders of human FGF22 protein, primary screen, FGF22 synaptogenesis inhibitor project, biophysical, thermal shift, single point | recombinant FGF22 thermal shift, SYPRO orange fluorescence; percent of sucrose octasulfate shift, DMSO zero | calls only at 9.99 µM | 340,000 tested, 1.5% active;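 active means melting point raised past a set limit in the mean and every replicate; inconclusive means no clear call; three in four hits are not shown here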
Target sequence (Q9HCT0 whole entry, looked up): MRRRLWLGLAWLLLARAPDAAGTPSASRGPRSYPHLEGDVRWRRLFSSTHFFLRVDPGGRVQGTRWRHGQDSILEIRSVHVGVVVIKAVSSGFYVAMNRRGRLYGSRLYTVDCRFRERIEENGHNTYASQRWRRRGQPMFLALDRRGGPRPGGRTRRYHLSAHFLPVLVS
RanGTP-Impb inh: inhibitors of RanGTP-importin-beta interaction, primary screen, biochemical, FRET, CFP-Ran, YFP-importin-beta, homogeneous. 300,000 tested, 1.1% active. cell-free CFP-Ran/YFP-importin-beta FRET ratio. Ran GTPase (GTP-bound) - importin-beta complex. inhibition, % (concentration not given with the values);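 active means most replicates above 15%; inconclusive means exactly half above 15%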;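 further: 0% = DMSO wells and 100% = Ran loaded with GDP instead of GTP; wells of about 40 µL received 100 nL stock; the first replicate is given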
AF4-AF9 inh: inhibitors of AF4 peptide binding to AF9, primary screen, biochemical, AlphaScreen, biotin-AF4 peptide, FLAG-AF9, single point; Protein AF-9 (Homo sapiens), P42568; inhibition, % at 10 µM; 350,000 tested, 0.47% active; AID 651704, 2012;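 active means every replicate reaching a set inhibition limit, whatever the replicate mean, cut at about 25% in these data; inconclusive means mean inhibition reaches that limit but some replicates miss it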;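 further: 0% = plate neutral control median and 100% = total signal loss; the record names both 10 and 1 µM as test concentration; the first replicate is given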
UCH37 DUB inh: inhibitors of human UCH37 deubiquitinase, primary screen, biochemical, Ub-AMC cleavage, fluorescence | inhibition, % (no concentration beside the values) | 330,000 tested, 0.33% active | purified proteasome/UCH37;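 active means mean of two replicates above 20%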;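 further: 0% = compound-free wells with enzyme and 100% = wells lacking proteasome; stock transfer was 100 nL into about 20 µL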
Target sequence (Q9Y5K5 whole entry, looked up): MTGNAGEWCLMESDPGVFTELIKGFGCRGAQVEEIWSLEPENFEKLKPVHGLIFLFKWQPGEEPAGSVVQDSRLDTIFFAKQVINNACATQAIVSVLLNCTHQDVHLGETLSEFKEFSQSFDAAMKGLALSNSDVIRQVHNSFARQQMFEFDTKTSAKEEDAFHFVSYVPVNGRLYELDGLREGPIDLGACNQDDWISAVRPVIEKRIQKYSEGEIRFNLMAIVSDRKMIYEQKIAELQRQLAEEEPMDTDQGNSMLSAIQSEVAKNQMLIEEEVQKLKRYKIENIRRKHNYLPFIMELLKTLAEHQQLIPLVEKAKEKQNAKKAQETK
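Material: human UCH37 enzyme supplied as purified proteasome complex. Measure: % inhibition of Ub-AMC cleavage fluorescence. Medium: pH 7.4 Tris-HCl (50 mM) with ovalbumin, ATP-MgCl2, DTT. Times: 30 min preincubation with enzyme, 25 min cleavage at room temperature. Detection: AMC fluorescence intensity at 355/460 nm.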
Numbers without * were called inactive; i = inactive; ? = inconclusive; nt = no result given; & = joins results of further samples. These rows are one share of the data; the hit share may differ from the screen's.

Values run as follows: Ecoli growth	HNF4A DNA FP	Vif TR-FRET	FGF22 binding	RanGTP-Impb inh	AF4-AF9 inh	UCH37 DUB inh
CCc1ccccc1Nc1nc(N)nc(CSc2nnc3ccccn23)n1
  0.72	2.5	0.4%	i	-0.5	-0.2	3.0
NS(=O)(=O)c1ccc(CCNC(=O)CSc2nc3ccsc3c(=O)n2C2CC2)cc1
  0.674	-1.4	nt	i	1.2	2.4	3.1
O=C(CSc1nc2cc(S(=O)(=O)N3CCOCC3)ccc2o1)NC1CCCc2ccccc21 (stereo unspecified)
  0.687	-2.0	10.7%	nt	-1.3	nt	3.0
Cc1cc(C)cc(NC(=O)CSc2ncc(S(=O)(=O)c3ccccc3)c(=O)[nH]2)c1
  0.709	nt	-4.1%	nt	-1.3	2.1	2.9
CC(NCc1cccc(S(=O)(=O)N(C)C)c1)c1ccc(F)cc1 (stereo unspecified)
  0.649	1.6	nt	i	0.2	1.8	1.2
CC1CN=C(N(C(=O)Nc2ccccc2)C(C)C)S1 (stereo unspecified)
  0.741	2.1	11.9%	nt	-0.2	nt	1.8
COc1ccc(C(=O)N/C(=C\c2ccccc2)C(=O)NC(CCSC)C(=O)O)cc1 (stereo unspecified)
  0.692	-0.3	0.5%	nt	-0.6	nt	2.0
CN(CCN(C)C(=O)c1[nH]cnc1C(=O)Nc1ccccc1)C(=O)c1[nH]cnc1C(=O)Nc1ccccc1
  0.647	-2.0	nt	i	nt	1.0	2.9
COc1ccc(OCCCN2CCCC(C)C2)cc1 (stereo unspecified)
  0.695	2.8	10.5%	nt	-1.8	nt	0.1
COc1cccc(OCc2cc(C(=O)N(Cc3ccccc3)CC3CC3)no2)c1
  0.719	0.2	nt	i	-0.5	-5.6	2.5
O=C(NNS(=O)(=O)c1ccccc1)c1ccc(F)cc1
  0.628	-4.7	-2.5%	i	-1.0	5.1	2.4
O=C1[C@H]2[C@@H](c3ccc(F)cc3)N3C(=O)N(c4cccc(F)c4)C(=O)[C@@]3(Cc3ccc(Cl)cc3)[C@H]2C(=O)N1C1CCCCC1
  nt	0.4	nt	i	-0.8	3.9	-0.5
CC(C)N1CCC(NC(=O)Nc2ccc3c(c2)OCO3)CC1
  0.672	-1.2	-3.1%	i	9.4	-1.5	4.0
CCN(CC(=O)Nc1c(F)cccc1F)C(=O)/C=C/c1ccc(S(=O)(=O)N2CCCCCC2)cc1
  0.634	-4.8	-1.1%	i	4.6	6.7	1.0
Cc1cc(C(=O)CSc2nnc(N)s2)c(C)n1Cc1ccco1
  0.669	-1.8	nt	nt	2.1	-3.3	8.1
CC(C)Oc1ccccc1/C=N/NC(=O)c1ccc(F)cc1
  nt	-2.0	-0.6%	nt	5.0	nt	nt
Cc1ccc(-c2noc(CN(C(=O)Cc3ccccc3)C(C)C)n2)cc1
  0.66	0.9	-6.0%	nt	-8.6	nt	2.6
Cc1ccccc1N(CC(=O)NC1CCCCC1)C(=O)CCC(=O)Nc1nccs1
  0.688	0.1	nt	i	1.8	0.1	1.0
O=C(c1ccccc1F)N1CCN(S(=O)(=O)c2ccc(S(=O)(=O)N3CCCCCC3)cc2)CC1
  0.692	-2.0	10.4%	i	2.9	-2.0	0.3
CS(=O)(=O)c1ccc(Cl)c(NC(=O)COC(=O)CCc2c[nH]c3ccccc23)c1
  0.643	0.8	4.1%	i	-2.8	5.2	1.5
Cc1onc(-c2ccccc2)c1-c1n[nH]c(=S)n1-c1ccccc1
  0.675	-1.3	-6.3%	nt	?	nt	4.0
CCC(=O)c1c[nH]c(C(=O)NCCc2ccccn2)c1
  0.794	-1.9	5.3%	nt	8.9	nt	0.7
C=CCN1C=C2C(=O)C(C)(OC(=O)CC)C(=O)C=C2C=C1CCCC (stereo unspecified)
  0.688	-0.9	31.9%	i	1.6	1.6	5.6
CCOc1ccc(-n2c(Cc3cc(=O)[nH]c(=O)[nH]3)nnc2SCC(=O)NC2CCCC2)cc1
  0.731	-0.4	73.5%	i	nt	-4.1	-2.2
NS(=O)(=O)c1ccc(N2N=C(c3ccccc3)CC2c2cccc(F)c2)cc1 (stereo unspecified)
  0.617	-3.0	nt	i	-2.2	-17.8	i
CC(=O)Nc1ccc(N(CC(=O)NC2CCCC2)C(=O)CCC(=O)Nc2cc(C)on2)cc1
  0.713	-2.8	-7.0%	i	-2.0	-1.2	0.6
O=C1CCCC/C=C\C[C@H](CC(=O)N(CCO)Cc2ccccc2)C(=O)NC[C@H](c2ccccc2)O1
  nt	0.4	nt	i	nt	nt	0.6
Cc1ccc(N2CC(C(=O)N3CCC(C(=O)Nc4cccc(Br)c4)CC3)CC2=O)cc1 (stereo unspecified)
  0.654	1.1	nt	i	0.1	0.8	2.5
COc1cc(OC)cc(C(=O)N2CCN(c3ccc(N4CCOCC4)nn3)CC2)c1
  0.671	2.8	0.9%	i	5.4	-1.3	-108.0
CC1CCN(C(=O)CCNS(=O)(=O)c2ccccc2)CC1
  0.685	-2.8	-3.5%	nt	-1.5	nt	2.1
O=C(NCCCn1ccnc1)/C(=C\c1ccco1)NC(=O)c1ccco1
  0.7	-3.4	?	i	4.9	-2.4	4.7
COc1ccc(NC(=O)CC2Oc3ccccc3NC2=O)c(OC)c1 (stereo unspecified)
  0.718	3.0	-5.8%	i	-0.7	-1.6	6.4
CCOC(=O)Nc1ccc(C(=O)NCC2CCCO2)cc1 (stereo unspecified)
  0.673	-0.4	-6.2%	nt	0.3	nt	0.7
O=C(O)C1CC(Br)C(Br)CC1C(=O)O (stereo unspecified)
  nt	5.4	3.5%	i	nt	-1.5	nt
O=C(OCCN1CCCC1)C1(c2ccccc2)CCCC1
  0.655	0.3	-3.2%&-2.3%	nt	0.4	1.8	4.2
N#CC1=C(N)NC(SCC(=O)c2ccc(Cl)cc2)=C(C#N)C12CCCC2
  0.644	7.8	1.7%	i	2.8	-23.4	15.0
C=CCC1NS(=O)(=O)OC(CCCC)C1O (stereo unspecified)
  0.665&0.649	1.3	nt	i	4.1	-5.0	0.5
COC(=O)Nc1ccc(OCc2ccccc2)cc1
  0.673	2.3	28.4%	nt	4.6	2.3	3.1
CCOc1ccc(S(=O)(=O)NCc2ccco2)c2ccccc12
  0.647	-3.0	9.8%	i	1.0	2.1	3.0
COc1ccc(Br)c(C(=O)Nn2c(C)nc3ccccc3c2=O)c1
  0.711	-0.3	-5.0%	nt	-3.8	nt	1.7
NC(=O)C1CCN(C(=O)c2ccc(Oc3ccccc3)cc2)CC1
  0.655	2.0	0.5%	i	4.0	6.5	2.8
COc1ccc([C@H]2C[C@@H](O)[C@H](n3cc(C4CC4)nn3)CN2CC2CCCCC2)cc1
  nt	-2.2	0.7%	i	nt	4.8	nt
CCCCn1c(SCC(=O)N2CCCc3ccccc32)nc2c1c(=O)n(C)c(=O)n2C
  0.671	3.4	0.7%&6.0%	i	?	6.2	0.8
O=C(Nc1ccc(S(=O)(=O)Nc2nccs2)cc1)c1cc(-c2ccncc2)nc2ccccc12
  0.702	-17.4	8.1%	i	-0.5	-0.7	3.8
CNC(=O)c1cc2cc(Cc3ccccc3Cl)ccc2oc1=O
  0.685	6.6	28.8%	nt	-1.0	-1.8	-7.5

Filtered by structure: those above with a COOH group.
Values run as follows: Ecoli growth	HNF4A DNA FP	Vif TR-FRET	FGF22 binding	RanGTP-Impb inh	AF4-AF9 inh	UCH37 DUB inh
COc1ccc(C(=O)N/C(=C\c2ccccc2)C(=O)NC(CCSC)C(=O)O)cc1 (stereo unspecified)
  0.692	-0.3	0.5%	nt	-0.6	nt	2.0
O=C(O)C1CC(Br)C(Br)CC1C(=O)O (stereo unspecified)
  nt	5.4	3.5%	i	nt	-1.5	nt

Additional entries follow.
Values run as follows: Ecoli growth	HNF4A DNA FP	Vif TR-FRET	FGF22 binding	RanGTP-Impb inh	AF4-AF9 inh	UCH37 DUB inh
Cc1occc1C(=O)N/N=C/C=C\c1ccccc1[N+](=O)[O-]
  nt	2.0	6.7%	i	-1.5	2.3	nt
O=C1CC(NNC(=O)c2cccc(F)c2)C(=O)N1 (stereo unspecified)
  0.686	5.1	17.3%	i	3.9	-3.6	6.0
Cc1ccc(S(=O)(=O)NCc2ccc(C(=O)N3CCCC3)cc2)cc1
  0.649	3.5	-3.8%	nt	7.3	nt	2.9
Cc1cc(C)c(C)c(S(=O)(=O)N[C@@H](C)C(=O)OCC(=O)NC2CCCC(C)C2C)c1C (stereo partly specified)
  0.683	1.4	nt	i	nt	-4.0	2.4
COCCn1c(SCc2nc3cc(OC)c(OC)cc3c(=O)[nH]2)nnc1-c1ccncc1
  0.708	-2.5	2.1%	nt	-6.2	nt	2.0
O=C(CSc1nccn1-c1ccccc1)NO
  0.738	-3.7	6.6%	i	0.0	-7.9	-1.6
Cc1n[nH]c(=O)nc1NCC1CCCO1 (stereo unspecified)
  0.697	-0.7	-6.2%	nt	-1.7	nt	-3.2
COC(=O)[C@]1(Sc2ccc(C)cc2)CC(=O)N[C@@H]1c1ccco1
  nt	0.4	nt	i	nt	-4.1	nt
COc1ccc(C2c3ccc(O)cc3Oc3ncn4nc(-c5cccnc5)nc4c32)cc1OC (stereo unspecified)
  0.663	2.0	1.6%	i	?	7.8	1.7
Cc1nc(COc2cccc(Cl)c2)sc1C(=O)/C=C/N(C)C
  0.657	2.8	0.5%	i	?	2.0	9.9
Cc1ccc(S(=O)(=O)CCC(=O)OCC(=O)c2ccc(F)cc2)cc1
  0.699	0.6	7.2%	i	nt	-19.0	-1.8
CN(CCC1CCCCO1)C(=O)CCc1nnc(C2CCCCC2)o1 (stereo unspecified)
  0.698	1.4	nt	i	-1.4	-1.0	6.3
CC(=O)OCC(=O)c1ccc2ccn(C(C)=O)c2c1
  0.624	-0.5	?	nt	-4.7	nt	-102.7
Cc1ccc(N2C(=O)N(CC(=O)NCc3ccc(Cl)cc3)C(=O)C2C)cc1 (stereo unspecified)
  0.729	-1.1	-1.6%	nt	-3.0	nt	0.9
CC1CCCC(C)N1C(=O)COC(=O)c1ccc2ccccc2n1 (stereo unspecified)
  0.662	1.1	nt	i	nt	-11.7	-0.1
Brc1cccc(CNn2cnnc2)c1
  0.668	-3.0	nt	i	-1.1	1.7	0.8
Cc1ccc(C(=O)C(C)OC(=O)c2ccccc2[N+](=O)[O-])cc1 (stereo unspecified)
  0.626	-2.5	-1.9%	nt	-4.2	nt	-0.6
